AID504770 = E. coli YBA685 growth inhibition, screen for V. cholerae RctB inhibitors; E. coli YBA685 rctB-dependent plasmid, OD600 growth, 3 h; hits give low values; z-score (test concentration not listed); 0.27% of 130,000 active; AID 504770;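 active = z-score under -2 on both plates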;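 note: wells of about 30 µL received 100 nL stock; score is relative to mean and SD of the test wells; the first replicate is given; strong numbers were not always called active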
CapD inh = blocks the Bacillus anthracis CapD enzyme | 0.23% of 140,000 active | purified CapD enzyme, fluorescence intensity read-out; hits give low values; some hits fall short of the stated cut | z-score (no concentration beside the values);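 active = z-score under -4 in either of two replicates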;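 note: stock transfer was 100 nL into about 40 µL; score is relative to mean and spread of the plate; one replicate is shown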
An asterisk follows results filed as active; nt = not tested or not shown.

1. O=C(O)Cn1cc(/C=C2/C(=O)NC(=O)N(c3ccccc3F)C2=O)c2ccccc21
2. CCN(CC)C(=O)Cn1cc(S(=O)(=O)CC(=O)NC2CCCC2)c2ccccc21
3. CCC(C)NC(=O)c1cn(CC)c2ccc(S(=O)(=O)N3CCCCCC3)cc2c1=O (stereo not given)
4. Cc1nnc(N2C(=N)S/C(=C\c3c(-c4ccccc4)n(C)c4ccccc34)C2=O)s1
5. Cc1ccccc1NC(=S)N/N=C/c1ccc(O)cc1O
6. Clc1nc(CN2CCOCC2)nc2sc3c(c12)CCC3
7. CCOC(=O)c1ccc(-c2ccc(/C=C3\SC(=S)NC3=O)o2)cc1
8. CC(C)c1ccc(-n2ncc3ccccc3c2=O)cc1

| screen / no. | 1 | 2 | 3 | 4 | 5 | 6 | 7 | 8 |
| --- | --- | --- | --- | --- | --- | --- | --- | --- |
| AID504770 | nt | -0.5 | -1 | -0.45 | 1.9 | 0.75 | 0.4 | nt |
| CapD inh | -0.77 | nt | -0.26 | 0.24 | nt | nt | 0.23 | 0.89 |

3 structures already listed, sorted by heavy-atom count, low to high:
8. CC(C)c1ccc(-n2ncc3ccccc3c2=O)cc1
7. CCOC(=O)c1ccc(-c2ccc(/C=C3\SC(=S)NC3=O)o2)cc1
4. Cc1nnc(N2C(=N)S/C(=C\c3c(-c4ccccc4)n(C)c4ccccc34)C2=O)s1

| screen / no. | 8 | 7 | 4 |
| --- | --- | --- | --- |
| AID504770 | nt | 0.4 | -0.45 |
| CapD inh | 0.89 | 0.23 | 0.24 |

The list goes on:
9. CCN(CCCn1c(SCC#N)nc2ccccc2c1=O)c1ccccc1
10. N#Cc1cc(-c2nc3ccccc3o2)c(-c2ccncc2)[nH]c1=O
11. C/C(=N\Nc1nc(C(C)(C)C)cs1)c1ccc(F)cc1
12. CCOC(=O)C1=C(N)Oc2ccc3ccccc3c2C1c1ccncc1 (stereo not given)
13. O=C(/C=C/c1ccccc1)Nc1ccccc1N1CCCC1
14. COc1ccc(Nc2ncc(C#N)c(Nc3ccccc3)c2C#N)cc1
15. N#CCSc1cn(CC(=O)N2CCCC2)c2ccccc12
16. O=C(OCCN1CCCCC1)c1ccc2c(c1)OCO2

| screen / no. | 9 | 10 | 11 | 12 | 13 | 14 | 15 | 16 |
| --- | --- | --- | --- | --- | --- | --- | --- | --- |
| AID504770 | -0.6 | nt | nt | nt | -0.25 | 0.2 | -0.3 | -0.6 |
| CapD inh | 0.1 | -1.3 | 0.24 | -0.43 | 0.2 | 6.8 | nt | -0.1 |

17. Cc1ccc(C(=O)OCC(=O)c2ccccc2)cc1NC(=O)c1ccco1
18. O=C1NN(c2ccccc2)C(SCc2ccccc2Cl)=Nc2ccccc21
19. COc1ccc(OC)c(S(=O)(=O)NC2CC(=O)N(c3ccc(C)c(C)c3)C2)c1 (stereo not given)
20. O=S(=O)(F)c1ccc(C2=CC(c3ccccc3)n3ncnc3N2)cc1 (stereo not given)
21. O=C(Nc1ccc(OC(F)(F)F)cc1)N1CCC(O)CC1
22. O=C(C1CCC1)N1CCc2cc(S(=O)(=O)NC3CCCC3)ccc21
23. O=C(O)c1ccc(N2C(=O)c3[nH]nc(-c4ccccc4)c3C2c2cccnc2)cc1 (stereo not given)
24. CCC(Sc1nnc2c3ccccc3n(C)c2n1)C(=O)Nc1ccccc1C#N (stereo not given)

| screen / no. | 17 | 18 | 19 | 20 | 21 | 22 | 23 | 24 |
| --- | --- | --- | --- | --- | --- | --- | --- | --- |
| AID504770 | 0.1 | nt | 1 | nt | 0.65 | 0.2 | -0.4 | 0.1 |
| CapD inh | nt | -0.4 | nt | 2.9 | 1.2 | 0.86 | -0.26 | 0.17 |

25. CC(=O)O/N=C(\N)Cc1ccc(-c2csnn2)cc1
26. NC(=O)C1CCN(C(=O)OCCCCc2ccc([N+](=O)[O-])cc2)CC1
27. CC(NC(=O)CN1CSCC1=O)C12CC3CC(CC(C3)C1)C2 (stereo not given)
28. O=C(Oc1ccc(NC2=NS(=O)(=O)c3ccccc32)cc1CN1CCCCC1)c1ccccc1
29. COC(=O)c1ccc(N2CCN(C(=O)c3ccc(OC)cc3)CC2)c([N+](=O)[O-])c1
30. CCn1cc(C(=O)Nc2cccc(OC)c2)c2cc(OC)c(OC)cc2c1=O
31. CC(=O)NC12CC3CC(C1)CC(C(=O)OCC(=O)Nc1ccccc1C(=O)NC1CC1)(C3)C2

| screen / no. | 25 | 26 | 27 | 28 | 29 | 30 | 31 |
| --- | --- | --- | --- | --- | --- | --- | --- |
| AID504770 | -0.3 | nt | -0.35 | nt | nt | -1 | 0.25 |
| CapD inh | -0.12 | -0.45 | nt | -1.8 | 0.14 | -2.7 | nt |

One compound at a time, as listed above. Order of screens: AID504770, CapD inh
Results for NC(=O)C1CCN(C(=O)OCCCCc2ccc([N+](=O)[O-])cc2)CC1 = nt, -0.45
Results for CC(=O)O/N=C(\N)Cc1ccc(-c2csnn2)cc1 = -0.3, -0.12
Results for O=C(Oc1ccc(NC2=NS(=O)(=O)c3ccccc32)cc1CN1CCCCC1)c1ccccc1 = nt, -1.8
Results for COC(=O)c1ccc(N2CCN(C(=O)c3ccc(OC)cc3)CC2)c([N+](=O)[O-])c1 = nt, 0.14
Results for CCn1cc(C(=O)Nc2cccc(OC)c2)c2cc(OC)c(OC)cc2c1=O = -1, -2.7

Assay outcomes: PubChem BioAssay, ICCB-Longwood Screening Facility, Harvard Medical School
